# TRPML1 agonist = qHTS for Agonists of the Human Mucolipin Transient Receptor Potential 1 (TRPML1); 0.12% of 410,000 active; Mucolipin-1 (Homo sapiens), Q9GZU1; activation, % (concentration not given with the values); TRPML1-expressing cells, Ca2+ dye fluorescence, FDSS; host cell line not named in the record; reference of the full effect not given here; in the data active = activation above about 50%; inconclusive = about 30% to 50%; inactive = below about 30%; also: 0% is about no effect; the text of the record puts the active cut at 80%
# Target sequence (Q9GZU1 whole entry, looked up): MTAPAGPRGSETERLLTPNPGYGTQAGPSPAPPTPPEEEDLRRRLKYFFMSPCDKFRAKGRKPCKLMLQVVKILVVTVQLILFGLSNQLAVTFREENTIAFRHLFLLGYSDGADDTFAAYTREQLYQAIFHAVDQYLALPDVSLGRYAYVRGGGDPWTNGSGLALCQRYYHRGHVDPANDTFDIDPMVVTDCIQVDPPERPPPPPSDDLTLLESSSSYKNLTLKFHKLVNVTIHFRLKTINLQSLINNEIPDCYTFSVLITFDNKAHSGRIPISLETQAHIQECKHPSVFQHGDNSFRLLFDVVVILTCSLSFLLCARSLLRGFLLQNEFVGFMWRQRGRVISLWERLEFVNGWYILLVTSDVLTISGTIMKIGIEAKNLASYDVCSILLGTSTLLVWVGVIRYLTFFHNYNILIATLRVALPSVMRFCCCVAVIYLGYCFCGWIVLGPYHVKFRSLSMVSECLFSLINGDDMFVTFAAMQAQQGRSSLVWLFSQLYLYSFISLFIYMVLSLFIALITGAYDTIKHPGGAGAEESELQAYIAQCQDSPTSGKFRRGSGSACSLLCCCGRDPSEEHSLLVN
#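 Cells: TRPML1-DL, 1X Tet inducer, ~16 h at 37 degrees C/5% CO2. Dye: ABD Ca8 no-wash + quencher, 45-90 min RT. Read: 10 s baseline, compound add, 110 s agonist phase; 54-4 EC80 (4uM final), 110 s antagonist phase.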
# TRPML1 blocker = qHTS for Inhibitors of the Human Mucolipin Transient Receptor Potential 1 (TRPML1); Mucolipin-1 (Homo sapiens), Q9GZU1; 0.02% of 390,000 active; activity change, negative = inhibition, % (test concentration not listed); TRPML1-inducible cells, Ca2+ dye fluorescence, FDSS; hits give low values; inhibition of EC80 agonist-evoked calcium signal; in the data active means activity change below about -50%; inconclusive means about -30% to -50%; inactive means above about -30%;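 also: stimulus is agonist 54-4 at its EC80 concentration; % is scaled to controls: 0 for no effect and ±100 for the full control effect; compound concentration not given in the record; the text of the record puts the active cut at -80%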
#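 Calcium fluorescence in TRPML1-DL cells induced overnight with Tet: a 110 s read after compound pin addition, then a 110 s antagonist read after challenge with 54-4 at 4 uM final (EC80).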
# * marks the source's active call; other numbers are inactive results; ? = inconclusive.
SMILES,TRPML1 agonist,TRPML1 blocker
CCC(CC)C(=O)Nc1ccccc1SCc1cc(=O)c2cccc(C)c2[nH]1,1.5,-2.2
Cc1cc2oc(C(=O)Nc3c(C)n(C)n(-c4ccccc4)c3=O)cc(=O)c2cc1C,-0.5,-12.9
COc1ccc2c(c1)c1c(c(=O)n(-c3cc(Cl)ccc3C)c(=O)n1Cc1ccc(F)cc1)n2C,1.2,-3.3
CCc1ccccc1NC(=O)N1CCN(c2cc(-c3noc(C)n3)ccc2C)CC1,0.6,-5.5
COc1ccc(-c2cnc(C)o2)cc1S(=O)(=O)Nc1ccc(F)cc1F,-0.9,51.8
Cc1nc2c(c(C)nn2-c2ccccc2)c(C)c1CCC(=O)NCCc1ccccc1,1.7,-14.5
CCOc1ccc(NC(=O)c2c(NC(=O)Cc3ccccc3)sc3c2CCC(C)C3)cc1 (stereo not given),1.7,58.9
CSc1ccc(CCNC(=O)Cn2ncc3c(=O)oc4ccccc4c32)cc1,0.4,-3.3
Cc1c(NC(=O)c2sc3ccccc3c2Cl)cccc1-c1nc2ccccc2o1,-0.1,-16.6
Cc1cn2c(=O)cc(COc3cccc(NC(=O)c4ccc(C(C)(C)C)cc4)c3)nc2s1,1.6,-0.9
Cc1nc(N2CCOCC2)c2c(C(=O)Nc3cccc(C(F)(F)F)c3)c(C)oc2n1,0.7,17.8
COc1ccc(OC)c(C2CC(=O)c3c([nH]c(C(=O)OCc4ccc(C)cc4)c3C)C2)c1 (stereo not given),0.5,8.6
COc1ccccc1NC(=O)c1sc2nc3c(cc2c1N)CCCCCC3,1.3,-1.8
CCCN(c1ccc(C(C)C)cc1)S(=O)(=O)c1ccc2c(c1)CCN2C(=O)CC,-0.3,15.8
CC(C)COc1ccc(C(=O)N2CCN(CCc3ccncc3)CC2)cc1,-0.6,6.9
Cc1cc(-c2ccc(S(=O)(=O)Nc3ccccc3C)cc2)on1,1.7,15.8
COc1ccc(C)cc1NC(=O)CCS(=O)(=O)c1ccc2c(c1)CC(=O)N2C,0.0,0.1
Cc1ccc(NC(=O)Cn2c(=O)n(CCCCC(=O)NCCc3ccccc3)c(=O)c3ccccc32)c(C)c1,-0.7,-3.2
COc1ccc(Cl)cc1NC(=O)c1cnc(N2CCCCC2)c2ccccc12,0.1,-15.1
O=C(COc1ccc([N+](=O)[O-])cc1)Nc1nc2c(s1)CCCC2,1.8,-2.2
CCOc1ccccc1CNC(=O)Cn1nc(N2CCN(c3ccccc3)CC2)ccc1=O,2.7,21.4
CC(=O)c1ccc(NC(=O)c2nn(C)c3c2COc2ccccc2-3)cc1,-0.9,7.4
CCOC(=O)c1[nH]c2ccccc2c1NC(=O)c1cc(OC)cc(OC)c1,-0.5,6.2
CCOCCCNC(=O)c1cc2c(-c3ccc(OC)c(OC)c3)nn(C)c2s1,-1.2,7.3
Cc1ccc(NC(=O)C(=O)NCC(c2ccc3c(c2)OCO3)N2CCN(C)CC2)c(C)c1 (stereo not given),-0.6,-7.6
Cc1ccccc1Nc1nc(N)c(C(=O)c2ccccc2Cl)s1,2.6,56.2
O=S(=O)(NCc1csc(-c2ccccc2)n1)c1cccc(F)c1,1.0,6.5
Cc1nc(N2C(=O)c3oc4ccccc4c(=O)c3C2c2ccccc2F)sc1C (stereo not given),0.2,-8.4
Cc1ccc(C(=O)Nc2ccc(Cl)c(-c3nc4ncccc4o3)c2)c(C)c1,1.2,27.3
CCS(=O)(=O)N1CCc2cc(C(=O)Nc3cccc(C(C)=O)c3)ccc21,-0.5,-6.1
CCN1CCN(CCCNC(=O)Cn2nc(C)n3c(cc4cc(C)ccc43)c2=O)CC1,-0.1,-7.4
COc1ccccc1OC(C)C(=O)N1CCC(c2nc3ccccc3s2)CC1 (stereo not given),-0.2,-1.9
COc1ccc(OC)c(CNC(=O)CCCn2c(=O)c3cccn3c3cccnc32)c1,-0.1,0.5
COc1ccc(NC(=O)CN(C)S(=O)(=O)c2ccc3[nH]c4c(c3c2)CCCC4)cc1Cl,3.0,14.3
Cc1cccc(C(=O)Nc2c(C(=O)NCc3ccc(Cl)cc3)sc3nc(C)cc(C)c23)c1,2.3,-9.8
CCOC(=O)c1ccc(NC(=O)CCC(=O)N2Cc3ccccc3Oc3ncccc32)cc1,4.7,-4.4
CCN(CC)S(=O)(=O)c1ccc(C(=O)NC2CC(=O)N(c3ccc(OC)c(OC)c3)C2)cc1 (stereo not given),0.6,-14.5
CC1CCN(S(=O)(=O)c2ccc3c(c2)N(CC(=O)NCCc2ccccc2)C(=O)CO3)CC1,1.5,11.5
Cc1ccc(N2CCN(C(=O)C3CCC(CNS(=O)(=O)c4ccc(Br)s4)CC3)CC2C)cc1 (stereo not given),1.0,-0.7
CC(=O)Nc1ccc(NC(=O)CN2C(=O)CN(C)C(=O)c3ccccc32)cc1,2.1,-16.9
COc1ccc(CNC(=O)CS(=O)(=O)c2cccc3nsnc23)cc1,-0.3,0.0
COc1ccc(OC)c(CNC(=O)c2c3c(nc4ccccc24)C(=O)N(C2CCCCC2)C3)c1,-0.8,3.4
Cc1cccc(S(=O)(=O)c2cn(Cc3ccc(F)cc3)c3cc(N4CCOCC4)c(F)cc3c2=O)c1,0.0,-2.1
CC(=O)N1N=C(c2ccc(C)cc2)CC1c1cn(-c2ccccc2)nc1-c1cccs1 (stereo not given),0.7,6.2
Cc1ccc(C)c(NC(=O)CCN2C(=O)c3ccccc3Sc3ncccc32)c1,-0.2,3.4
COCCCNC(=O)CCCn1c(=O)c2ccccc2n(CC(=O)Nc2ccc(C)cc2Cl)c1=O,-0.5,-10.2
CCOc1ccccc1NC(=O)N1c2ccccc2Sc2ccccc21,-0.2,-6.0
Cc1ccc(C)c(N2CCN(C(=O)c3cnn(C(C)(C)C)c3C3CCN(C(=O)OC(C)(C)C)CC3)CC2)c1,50.8*,-26.1
CCn1c(=O)cc(OCC(=O)N2CCN(c3cccc(C)c3C)CC2)c2ccccc21,-0.3,0.1
CC(C)CCNC(=O)c1ccc(NC(=O)N2CCCCc3ccccc32)cc1,0.6,1.1
# (further entries)
SMILES,TRPML1 agonist,TRPML1 blocker
COc1ccccc1CNC(=O)c1ccc(N2CCCC2)c(NC(=O)NCc2ccc(C)cc2)c1,1.8,2.2
O=C(NCCN1CCOCC1)C1(C(F)(F)F)C/C(=C\CCO)CCCO1 (stereo not given),-0.1,-4.4
COc1ccc2c(c1)CCc1sc(NC(=O)c3ccc(Br)cc3)nc1-2,-0.5,16.4
O=C(Cn1cc(SCc2c(F)cccc2Cl)c2ccccc21)N1CCCCC1,-0.4,-14.2
Cc1ccc(CSc2ncc(Cl)c(C(=O)NCCc3ccc(S(N)(=O)=O)cc3)n2)cc1,2.4,-8.6
CCOCCc1nn2c(=O)cc(COC(=O)COc3ccccc3Cl)nc2s1,2.2,18.5
COc1ccc(CCNC(=O)Cc2c(C)c3cc4c(C(C)(C)C)coc4c(C)c3oc2=O)cc1OC,0.0,8.3
CCNc1oc(-c2ccc(COc3ccc(Cl)cc3)o2)nc1C#N,1.1,27.0
Cc1ccccc1OC(=O)c1cc(-c2ccc3c(c2)OCCO3)on1,0.7,72.6
O=C(CSc1nc2c(c(=O)[nH]1)CN(Cc1ccc3c(c1)OCO3)CC2)Nc1ccccc1Cl,-0.4,-1.7
COc1ccccc1C(=O)Nc1nnc(SCc2cc(=O)c3ccccc3[nH]2)s1,2.5,16.9
CC1Cc2ccccc2N1S(=O)(=O)c1nnc(NC(=O)c2ccccc2Br)s1 (stereo not given),0.4,4.2
O=C(NCCCc1nc2ccccc2n1Cc1ccc(Cl)cc1)C1CCCCC1,0.9,19.3
Cc1ccc2oc(-c3cc(NC(=O)CC(C)C)ccc3Cl)nc2c1,3.5,-18.3
CCCCCOC(=O)c1ccc(OC(=O)c2sc3ncn(Cc4cccc(F)c4)c(=O)c3c2C)cc1,-0.1,-12.9
N#Cc1c(-n2ncnc2-c2ccccc2Cl)sc2c1CCCCC2,-0.5,10.4
COc1ccc(-c2nc3cc(NC(=O)c4ccc(C)cc4)ccc3o2)cc1Cl,-0.3,25.3
COc1cccc(CNC(=O)Cn2nc(C)c3sc4ccccc4c3c2=O)c1OC,0.8,-1.2
O=C(CSc1nc2ccccc2c2nc(-c3ccccc3)nn12)Nc1ccc(Br)cc1,0.4,33.1
COc1ccc(C(=O)Nc2nc3n(n2)C(c2ccccc2)C=C(c2ccccc2)N3)cc1 (stereo not given),11.1,-5.9
CC(=O)c1ccc(N2CCN(S(=O)(=O)c3ccc4c(c3)CC(C)N4C(=O)C3CCC3)CC2)cc1 (stereo not given),0.9,24.4
CCOC(=O)c1cccc(NC(=O)c2cc3ccccn3n2)c1,-1.0,-26.4
CCc1nn2c(=O)cc(COC(=O)c3ccccc3)nc2s1,-0.7,1.9
COc1ccc(CNC(=O)C(CC(C)C)NS(=O)(=O)c2ccc3c(c2)CCN3C(C)=O)cc1 (stereo not given),-1.0,-17.8
COc1cc(OC)c(NS(=O)(=O)c2ccc3oc(=O)c4ncn(C)c4c3c2)cc1Cl,1.3,-16.4
Cc1ccc(CN2C(=O)CC(c3ccc(Cl)cc3)c3c(C)nn(-c4nc(C)cc(C)n4)c32)cc1 (stereo not given),1.3,6.9
Cc1ccc(-c2nc(C(=O)N3CCN(c4ccccc4)CC3)c3n2CCCCC3)cc1,3.1,8.1
COc1ccc(C(=O)Nc2cccc(-c3nc4cccnc4s3)c2C)c(OC)c1,0.4,15.7
Cn1c(=O)c2c(-c3ccc(Cl)cc3)n(Cc3ccc(Cl)cc3)cc2n(C)c1=O,0.9,69.8
Cc1ccc(CN2C(=O)C(=O)c3cc(Br)cc(C)c32)cc1,6.5,0.8
O=C(Nc1ccccc1C(=O)O)c1cccc(S(=O)(=O)N2CCCC2)c1,2.3,49.9
COC(=O)CN1C(=O)CSc2ccc(S(=O)(=O)Nc3c(C)cc(C)cc3C)cc21,-0.1,-6.7
COc1ccccc1C(=O)Nc1ccc(S(=O)(=O)Nc2ncccn2)cc1,0.2,-18.3
CCc1ccc(-n2nc(C)c3c(C)cc(=O)n(CC(=O)N4CCCc5ccccc54)c32)cc1,-0.4,10.5
CCOC(=O)c1c(NC(=O)Cc2coc3cc(C)cc(C)c23)sc2c1CCC2,-0.2,-16.8
Cc1ccc(S(=O)(=O)N2CCc3cc(C(=O)N(C)Cc4ccccc4)ccc32)cc1,0.5,36.0
CCc1ccc(NC(=O)C(=O)NCC(c2cccnc2)N2CCN(C)CC2)cc1 (stereo not given),0.5,-4.8
COc1cc(OC)c(NC(=O)N2CCSc3ccccc32)cc1Cl,2.3,-2.7
COc1ccc(C(=O)NCC(c2ccc3c(c2)OCO3)N2CCOCC2)cc1OC (stereo not given),0.1,2.7
COC(=O)c1ccc(C(=O)OC)c(NC(=O)N2CC3CCCN3c3ccccc32)c1 (stereo not given),-0.4,2.8

# Full records, quoted from the list. Order of values: TRPML1 agonist	TRPML1 blocker
# CCCN(c1ccc(C(C)C)cc1)S(=O)(=O)c1ccc2c(c1)CCN2C(=O)CC is listed as -0.3	15.8
# Cc1ccc(NC(=O)C(=O)NCC(c2ccc3c(c2)OCO3)N2CCN(C)CC2)c(C)c1 (stereo not given) is listed as -0.6	-7.6
# CCCCCOC(=O)c1ccc(OC(=O)c2sc3ncn(Cc4cccc(F)c4)c(=O)c3c2C)cc1 is listed as -0.1	-12.9
# COCCCNC(=O)CCCn1c(=O)c2ccccc2n(CC(=O)Nc2ccc(C)cc2Cl)c1=O is listed as -0.5	-10.2

# Structures listed so far that have a tert-butyl group (3):
SMILES,TRPML1 agonist,TRPML1 blocker
Cc1cn2c(=O)cc(COc3cccc(NC(=O)c4ccc(C(C)(C)C)cc4)c3)nc2s1,1.6,-0.9
Cc1ccc(C)c(N2CCN(C(=O)c3cnn(C(C)(C)C)c3C3CCN(C(=O)OC(C)(C)C)CC3)CC2)c1,50.8*,-26.1
COc1ccc(CCNC(=O)Cc2c(C)c3cc4c(C(C)(C)C)coc4c(C)c3oc2=O)cc1OC,0.0,8.3

# (cont.)
SMILES,TRPML1 agonist,TRPML1 blocker
Cc1csc2nc(CCNS(=O)(=O)c3ccc(F)cc3)cn12,-0.1,2.5
CCOc1ccc(CCNC(=O)CN(c2ccc(C)cc2)S(=O)(=O)N(C)C)cc1OCC,-0.6,-1.0
CC(C)Cn1c(=O)c2sccc2n2c(CCCC(=O)N3CCN(c4ccc(F)cc4)CC3)nnc12,0.9,-17.2
COc1ccccc1NC(=O)C(=O)c1cc(C)n(-c2ccccc2F)c1C,1.3,?
CCNC(=O)c1cnc2sc(N3CCC(C)CC3)nn2c1=O,-0.3,5.8
CC(=O)Nc1cccc(NC(=O)Cn2cnc3c2c(=O)n(C)c(=O)n3C)c1,0.1,16.0
COC(=O)c1sc2cccc(F)c2c1S(=O)(=O)N1CCN(c2cccc(OC)c2)CC1,1.4,0.0
COc1ccccc1N1CCN(S(=O)(=O)c2c(C)sc3ncn(CC(=O)Nc4ccc(C(C)C)cc4)c(=O)c23)CC1,1.2,-4.1
COc1cccc(Cn2c(=O)n(CC3CCC(C(=O)NC(C)C)CC3)c(=O)c3sccc32)c1 (stereo not given),-0.5,-4.8
Fc1ccc(Nc2c(-c3ccccn3)nc3ccc(Cl)cn23)cc1,0.0,-21.7
CCS(=O)(=O)c1ncc(Cl)c(C(=O)N(Cc2ccccc2)Cc2ccco2)n1,6.3,-18.2
CCN(CC)S(=O)(=O)c1ccc(NC(=O)Cn2ncc3c([nH]c4ccccc43)c2=O)cc1,4.6,33.1

# High-throughput results: PubChem BioAssay, National Center for Advancing Translational Sciences (NCATS)

# This is a subset. The share of hits here may be higher or lower than overall.
